Compound activity from PubChem BioAssay.
Cruzain inh Det: blocks cruzain activity in presence of Triton detergent. P25779. purified cruzain, Z-FR-AMC fluorescence, 0.01% Triton. Potency, µM, for inactives: max response, negative = inhibition, actives largely listed as inhibitors. 200,000 compounds, 0.43% hits;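 note: plate controls were neutral wells for no effect and buffer without enzyme for full effect; nearly all actives have a fitted effect of over 40% in size; top concentration of the series not given in the record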
Target sequence (P25779 123-467 limits assumed): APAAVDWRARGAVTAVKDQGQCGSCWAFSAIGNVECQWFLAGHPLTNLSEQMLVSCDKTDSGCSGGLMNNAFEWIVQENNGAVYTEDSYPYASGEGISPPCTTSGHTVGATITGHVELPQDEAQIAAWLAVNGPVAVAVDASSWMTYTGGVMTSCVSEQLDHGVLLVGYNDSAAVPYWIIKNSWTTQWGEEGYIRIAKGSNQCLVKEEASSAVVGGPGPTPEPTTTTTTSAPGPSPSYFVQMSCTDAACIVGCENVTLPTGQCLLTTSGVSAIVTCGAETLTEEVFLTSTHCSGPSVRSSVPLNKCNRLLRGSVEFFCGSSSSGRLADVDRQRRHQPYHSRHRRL
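Cruzain (1.5 nM) preincubated 15 min at RT with compound in 100 mM sodium acetate pH 5.5, 5 mM DTT, 0.01% Triton X-100. Reaction started with 2 uM Z-FR-AMC; AMC fluorescence (ex 360/em 450 nm) change over 60 s gave rate.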
Cruzain noTriton: cruzain (T. cruzi) inhibition without detergent; P25779; purified cruzain, Z-FR-AMC fluorescence, no detergent; Potency, µM, inactives show max response, negative = inhibition, usual class: inhibitors; 200,000 compounds, 2.3% hits; AID 1476;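 note: plate controls were enzyme without inhibitor for no effect and buffer without enzyme for full effect; nearly all actives have a fitted effect of over 40% in size; top concentration of the series not given in the record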
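Detergent-free condition (0.00005% Triton X-100) in acetate buffer pH 5.5 with DTT. 1.5 nM enzyme and compound were pre-mixed 15 min, then 2 uM Z-FR-AMC substrate added; reaction progress from fluorescence change between first and third reads (60 s).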
StopGo reporter: lowers the luciferase signal of an FMDV 2A StopGo reporter; human cells with a luciferase reporter of 2A StopGo recoding; control for the full effect not named in the record; Potency, µM (highest dose often 57.9 µM), inactives show at the top dose signal change, negative = less light; 410,000 compounds, 1.2% hits; AID 1159524; active = well fitted falling curve with a large enough effect; inconclusive = small, poorly fitted or top-dose-only effect; inactive = no such curve, though single readings can be large or run the other way; tested in HEK293T cells; note: % is set by controls: 0 for no effect and ±100 for the full control effect; nearly all actives have a fitted effect of over 45% in size; luciferase light after 4 h
Marburg entry inh: inhibitors of Marburg virus binding or cell entry | Marburg virus pseudotyped entry inhibition, cell reporter; control for the full effect not named in the record; about a third of the inactives were read at about 46 µM | Potency, µM (top dose mostly 37.8 µM), inactives show at the top dose activity change, negative = inhibition, usual class: inhibitors | 300,000 compounds, 1.8% hits | AID 540276; active = well fitted inhibition curve with a large enough effect; inconclusive = small, poorly fitted or top-dose-only effect, or effect the other way; inactive = flat fitted curve, though single readings scatter; tested in HEK293 cells; about a fifth of its hits are not listed in these tables; note: % is set by controls: 0 for no effect and ±100 for the full control effect; luciferase read-out
RE007 growth inh: less growth of the S. pombe RE007 Vpr strain; Potency, µM (highest dose often 92.2 µM), for the others: at the top dose activity change, negative = less growth; 360,000 compounds, 0.21% hits; S. pombe RE007 Vpr strain, BacTiter-Glo ATP luminescence, 24 h; control for the full effect not named in the record; active = well fitted falling curve with a large enough effect; inconclusive = small, poorly fitted or top-dose-only effect; inactive = no such curve, though single readings can be large or run the other way;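 note: % is set by controls: 0 for no effect and ±100 for the full control effect; nearly all actives have a fitted effect of over 50% in size; the assay follows cell death caused by Vpr and the record does not say whether a fall means rescue or toxicity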
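Fission yeast strain RE007, carrying one chromosomally integrated HIV-1 vpr copy, was seeded at OD 0.01 in PMG+AL medium with 23 nL pinned compound. After 24 h at 30 °C and 99% humidity, viability was read by BacTiter-Glo luminescence.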
NS1 function inh: inhibitors of influenza NS1 protein function; 270,000 compounds, 0.4% hits; Potency, µM (doses to about 46.1 µM), for inactives: at the highest dose activity, positive = more growth; S. cerevisiae slowed by influenza A NS1, growth recovery by OD600; active means well fitted rising curve with a large enough effect; inconclusive means small, poorly fitted or top-dose-only effect; inactive means no such curve, though single readings can be large or run the other way; note: nearly all actives have a fitted effect of over 50% in size
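A cell-based growth assay was used: compounds that relieve NS1-induced slow growth of budding yeast raise OD600. Assay medium was yeast nitrogen base with ammonium sulphate and -URA supplement, pH 6.0, with 2% galactose.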
LASV entry inh: inhibitors of Lassa virus binding or cell entry | Lassa virus pseudotype entry inhibition, cell reporter; control for the full effect not named in the record | Potency, µM (doses to about 37.9 µM), inactives show at the top dose activity change, negative = inhibition, actives largely listed as inhibitors | 300,000 compounds, 1.2% hits | AID 540256; active means well fitted inhibition curve with a large enough effect; inconclusive means small, poorly fitted or top-dose-only effect, or effect the other way; inactive means flat fitted curve, though single readings scatter; tested in HEK293 cells; note: % is set by controls: 0 for no effect and ±100 for the full control effect; nearly all actives have a fitted effect of over 50% in size; luciferase read-out
SARS PLP yeast: SARS-CoV PLP inhibition in yeast | Potency, µM (series often up to 32.9 µM), for inactives: at the highest dose activity, positive = growth rescue | S. cerevisiae expressing SARS-CoV PLpro, growth rescue; control for the full effect not named in the record | 330,000 compounds, 0.19% hits; active means well fitted rising curve with a large enough effect; inconclusive means small, poorly fitted or top-dose-only effect; inactive means no such curve, though single readings can be large or run the other way; note: 0% is about no effect; nearly all actives have a fitted effect of over 55% in size; growth read by luminescence after 48 h
The depositor's hits bear a star; ? = inconclusive; . = no result given; [ ] = remark or other dose. Unless noted, calls come from the whole dose curve; as a rule, active = well fitted curve in the direction sought with a large enough effect; inconclusive = small, poorly fitted or top-dose-only effect, or another doubt; inactive = no such curve, though single readings can be large; an effect the other way counts as inactive or inconclusive. Potency is the fitted concentration of half-maximal effect.

compound	NS1 function inh	Cruzain noTriton	SARS PLP yeast	StopGo reporter	Marburg entry inh	LASV entry inh	Cruzain inh Det	RE007 growth inh
CC(C)(CO)NC(=O)CCCOc1ccc(Cl)cc1Cl	-2%	9%	3%	58%[activator]	-1%	?	4.4%	12%
O=C(OCc1cn(-c2ccc(Cl)c(Cl)c2)nn1)c1ccccc1	0%	3%	6%	-6%	-18%	-9%	-2.8%	0%
O=c1[nH]c(=O)n(C2OC(CO)C(O)C2O)cc1Br (stereo unspecified)	-9%	.	3%	-10%	0%[46.1 µM]	-17%	.	6%
CN(C(=O)c1ccc(Oc2ccc([N+](=O)[O-])cc2)cc1)C1CCCCC1	-36%	.	-4%	?	.	.	.	16%
O=C(COC(=O)COc1ccccc1[N+](=O)[O-])Nc1ccc(S(=O)(=O)N2CCCCC2)cc1	-61%	-7%	6%	15%	0%	20%	-3.2%	2%
Cc1cc(=O)oc2cc(OC(=O)c3ccccc3)ccc12	-6%	.	1%	-12%	.	.	.	-14%
CCOc1cccc(N2C(=O)CC(NNC(=O)c3ccc(Br)o3)C2=O)c1 (stereo unspecified)	4%	.	-1%	-8%	-2%[46.1 µM]	4%	.	-5%
O=C1/C(=C/c2cccnc2)SC(=S)N1C1CCS(=O)(=O)C1 (stereo unspecified)	-7%	-1%	-36%	14µM*	?	?	-7.5%	3%
CCC(=O)Nc1ccc(-c2nnc(SCC(=O)NCC3CCCO3)n2C)cc1 (stereo unspecified)	5%	-5%	12%	-30%	-7%	-13%	-2.0%	6%
CC(=O)C1C(c2ccccc2Cl)NC(=O)NC1(O)C(F)(F)F (stereo unspecified)	8%	-4%	9%	-7%	.	.	3.5%	6%
Cc1ccc(C(=O)N/C(=C/c2ccccc2)C(=O)NC(Cc2ccccc2)C(=O)O)cc1 (stereo unspecified)	7%	-4%	-1%	9%	7%	-4%	-2.7%	1%
COc1cccc2cc(C(=O)C3=C(O)C(=O)N(CCN(C)C)C3c3ccc(F)cc3)oc12 (stereo unspecified)	6%	-4%	2%	.	-14%	?	-3.3%	8%
COc1ccccc1CNC(=O)c1ccc2c(=O)n3c(nc2c1)CCCCC3	1%	.	-2%	-10%	.	.	.	8%
O=c1[nH]c2ccc(S(=O)(=O)N3CCN(c4ccccc4)CC3)cc2[nH]c1=O	-2%	1%	0%	.	-4%	0%	7.4%	-15%
Cc1c(Cl)cccc1-n1c(SCC(=O)NCc2ccccc2Cl)nnc1-c1ccncc1	-10%	5%	-1%	-25%	-17%	15%	2.4%	-5%
CC(=C1SC(=S)NC1=O)c1ccccc1	.	.	.	23%	?	14%[46.1 µM]	.	-7%
C=CCn1c(SCC(=O)N2CCOCC2)nc2sc3c(c2c1=O)CCCC3	-50%	?	-2%	0%	?	-30%	-1.6%	1%
Cc1ccccc1Nc1c(-c2ccc(N3CCOCC3)cc2)nc2ccc(Br)cn12	.	-14%	.	29%	-13%[46.1 µM]	-26%[46.1 µM]	-4.9%	.
CCc1nn(CC(=O)NCc2cccc(OC)c2)c(=O)c2cc3cc(F)ccc3n12	.	-1%	.	-11%	-9%[46.1 µM]	.	-1.2%	.
N#Cc1c(SCC(N)=O)nsc1SCc1ccccc1Cl	?	-1%	-25%	?	?	-25%	-5.3%	11%
O=C(N1CCOCC1)C(F)(F)C(=O)N1CCOCC1	7%	12%	0%	11%	5%	1%	-0.9%	26%
Cc1cc(N2CCC(C(N)=O)CC2)nc(-c2ccccc2)n1	5%	-5%	0%	-21%	-16%	12%	0.6%	1%
CCOc1ccc(CCNC(=O)Cc2ccc(S(=O)(=O)N3CCOCC3)s2)cc1OCC	.	.	-4%	-14%	-22%	4%	.	-8%
Cc1ccc2oc(C(=O)N3CCCCCC3)c(C)c2c1	-38%	.	-1%	27%	.	.	.	-10%
CCCCOc1ccc(C(=O)N/C(=C\c2ccc([N+](=O)[O-])cc2)C(=O)OCc2ccco2)cc1	17%	?	9%	-12%	-8%	-2%	-7.9%	-4%
COc1cccc(CNC(=O)c2cc3cc(C)ccc3n2C)c1	.	-9%	.	-8%	?	?	-0.1%	.
CC(C)c1ccc(NC(=O)Cn2c3ncccc3c(=O)n2-c2ccccc2)cc1	.	-19%	.	-10%	.	11%[46.1 µM]	-0.6%	.
N#CCCNC(=O)CCN1CCCCC1	1%	-16%	2%	-8%	0%[46.1 µM]	-12%	6.2%	8%
Cc1ccc(NC(=O)c2cc(S(=O)(=O)N3CCc4ccccc43)cn2C)cc1C	20%	.	-13%	-14%	.	.	.	-1%
COc1ccccc1NC(=O)CN(c1ccc(C)cc1)S(=O)(=O)c1c(C)n[nH]c1C	?	?	9%	-8%	?	2%	5.1%	10%

Next part
compound	NS1 function inh	Cruzain noTriton	SARS PLP yeast	StopGo reporter	Marburg entry inh	LASV entry inh	Cruzain inh Det	RE007 growth inh
Clc1ccccc1COc1ccccc1-c1nnco1	-20%	8%	2%	-18%	15%	-14%	-5.3%	-5%
O=C(CN1CCN(c2ccccc2O)CC1)NNC(=O)c1ccc(Cl)cc1	14%	-9%	-9%	-8%	3%	-4%	-4.1%	14%
COc1cccc(CNS(=O)(=O)c2ccc3c(c2)CCN3C(=O)C2CCC2)c1	.	-13%	.	4%	9%[46.1 µM]	?	-4.3%	.
CSc1ccc(NC(=O)N2CCN(c3nc4ccccc4s3)CC2)cc1	-10%	2%	-4%	0%	7%	-8%	-3.0%	2%
O=C(NCC(O)CN1CCOCC1)c1ccc([N+](=O)[O-])cc1 (stereo unspecified)	6%	.	9%	-19%	8%	3%	.	8%
COc1cccc(N2CC(O)Cn3c2nc2c3c(=O)n(CCCc3ccccc3)c(=O)n2C)c1 (stereo unspecified)	-19%	?	2%	?	-27%	-20%	-3.5%	2%
CCOC(=O)Cc1ccc(NCc2ccc(Cl)cc2)cc1	.	.	-3%	-2%	1%	-13%	.	-6%
CCOC(=O)CN1CC23C=CC(O2)C(C(=O)Nc2ccc4c(c2)OCO4)C3C1=O (stereo unspecified)	9%	-7%	2%	18%	?	5%	0.7%	-2%
O=c1c2cccnc2nc2n1CCCCC2	6%	.	1%	5%	9%[46.1 µM]	3%[46.1 µM]	.	-7%
COc1ccccc1NC(=O)CSc1nnc(CNC(=O)c2ccccc2F)o1	7%	.	2%	-6%	?	26%[46.1 µM]	.	12%
CCc1ccccc1Nc1nn2c(=O)c3ccc(C(=O)Nc4ccc(OC)cc4)cc3nc2s1	.	-20%	.	-29%	.	-14%[46.1 µM]	-2.3%	.
Oc1cc2c(cc1CN1CCN(c3ccccc3)CC1)OCO2	12%	.	12%	-3%	2%[46.1 µM]	2%[46.1 µM]	.	-15%
CC(C)Nc1nc(NC(C)C)nc(N(C)C#N)n1	-1%	1%	-2%	7%	11%	14%	1.0%	13%
Cc1ccc2oc(=O)n(CC(=O)OC(C)C)c2c1	16%	-11%	6%	0%	-6%	13%	1.1%	-10%
Cc1ccc(C(=O)COC(=O)c2ccccc2NC(=O)c2ccccc2)cc1[N+](=O)[O-]	20%	?	3%	-23%	15%	8%	-3.1%	11%
COc1cccc(OC(=O)CSc2nnc(-c3ccccc3OC)o2)c1	.	5%	.	2%	-5%[46.1 µM]	-20%[46.1 µM]	-5.8%	.
Cc1cc(C)c(C#N)c(SCC(=O)C2CC2)n1	-1%	.	1%	25%	.	.	.	-16%
Cc1ccc(C(=O)Nc2cccc(C(=O)O)c2)cc1S(=O)(=O)N1CCOCC1	9%	0%	-1%	.	?	?	0.2%	7%
COc1ccc(Cl)cc1C(=O)C1CCCN(Cc2cnc(C)s2)C1 (stereo unspecified)	-5%	.	1%	-14%	3%[46.1 µM]	11µM*	.	-7%
Brc1ccc(-c2nnc(-c3ccccc3Br)o2)cc1	6%	-1%	-1%	61%[activator]	?	?	-0.7%	-7%
Cc1ccc(NC(=O)c2ccc(CSc3ccccn3)cc2)cc1	1%	-11%	5%	-10%	?	?	4.2%	33%
COc1cc(/C=C/C(=O)O)cc(S(=O)(=O)NC2CCCC2)c1OC	5%	.	0%	29%	.	.	.	-5%
COc1ccc(-c2nc(-c3cccnc3)no2)cc1	-6%	.	1%	25%	.	.	.	-10%
CCOC(=O)c1cc(C)n(-c2c(C)n(C)n(-c3ccccc3)c2=O)c1C	-3%	11%	1%	-2%	14%	11%	5.2%	12%
COC(=O)C1CCN(S(=O)(=O)c2cc3c4c(c2)C(C)C(=O)N4CCC3)CC1 (stereo unspecified)	.	30%	.	8%	.	5%[46.1 µM]	-0.9%	.
Cc1ccc(C)c(NC(=O)COC(=O)Cn2c(C)csc2=O)c1	.	.	9%	4%	-11%	-1%	.	9%

Compounds from the list above containing bromine (four):
compound	NS1 function inh	Cruzain noTriton	SARS PLP yeast	StopGo reporter	Marburg entry inh	LASV entry inh	Cruzain inh Det	RE007 growth inh
O=c1[nH]c(=O)n(C2OC(CO)C(O)C2O)cc1Br (stereo unspecified)	-9%	.	3%	-10%	0%[46.1 µM]	-17%	.	6%
CCOc1cccc(N2C(=O)CC(NNC(=O)c3ccc(Br)o3)C2=O)c1 (stereo unspecified)	4%	.	-1%	-8%	-2%[46.1 µM]	4%	.	-5%
Cc1ccccc1Nc1c(-c2ccc(N3CCOCC3)cc2)nc2ccc(Br)cn12	.	-14%	.	29%	-13%[46.1 µM]	-26%[46.1 µM]	-4.9%	.
Brc1ccc(-c2nnc(-c3ccccc3Br)o2)cc1	6%	-1%	-1%	61%[activator]	?	?	-0.7%	-7%

This is a random part of the collection (roughly 4.7% active in at least one column).
